# Screening results (PubChem BioAssay)
# NPYLR7 ag: mosquito NPYLR7 agonism; HEK293T NPYLR7/Galpha15, GCaMP6s calcium fluorescence; activation, % at 10 µM; actives 0.15% (n = 270,000); AID 1259423; in the data active = activation above about 40%;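 note: 0% = vehicle and 100% = reference agonist at the receptor; some compounds past the cut are filed as inactive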
# NPYLR7 ag max-min: second read-out of NPYLR7 ag, no call of its own (marks repeat the call); activation, %; measured here: Max-Min RFU normalised activation; some inactives read as strong as hits;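 span of the calcium signal over five minutes; 0% = vehicle and 100% = native peptide agonist; compound fluorescence can raise it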
# * marks the source's active call; other numbers are inactive results; & = joins results of further samples. A portion of the library; rates above refer to the full screens.
structure,NPYLR7 ag,NPYLR7 ag max-min
COc1ccc(-c2ccc(/C=C3\SC(=S)NC3=O)o2)c([N+](=O)[O-])c1,4.4,-0.1
OC(c1ccccc1)c1ccccn1 (configuration not stated),-0.1,16.6
CCC(C(=O)N(CCOC)CC(=O)N1CCc2sccc2C1c1ccccc1C)c1ccccc1 (configuration not stated),-6.7,-0.1
CS(=O)(=O)Nc1ccc(N)c(C(F)(F)F)c1,-0.8,-5.7
CCOc1ccc(NC(=O)N2CCC3(CC2)SCCN3C(=O)c2ccccc2C)cc1,-1.2,9.8
O=C(NCc1nnnn1-c1ccc(F)c(F)c1)Nc1cccs1,3.1,1.0
CCOC(=NCc1ccccc1)NC(=O)c1cccc(C(F)(F)F)c1,-5.5,5.0
COCC(=O)N1CCCN(Cc2ccc(-n3cncn3)cc2)CC1,3.1,0.5
CCOc1cc(Nc2ccc(NC(=O)CC)cc2)nc(C)n1,12.4,3.0
COc1cc(N=Cc2nc(-c3ccccc3F)oc2O)c(C(=O)O)cc1OC,-2.8,-7.8
Cc1ccc(S(=O)(=O)N(Cc2ccco2)Cc2nccn2Cc2cccc(F)c2)cc1,-2.4,3.4
CCOC(=O)c1ccc2c(c1)nc(SCc1cc(F)ccc1Br)n2Cc1ccccn1,-7.0,-6.1
COCCN(C(=O)CN1CCN(CC(F)(F)F)CC1)c1c(N)n(Cc2ccccc2)c(=O)[nH]c1=O,6.4,6.2
CCc1nc(C)sc1CNC(=O)c1sccc1NC(C)=O,-3.0,-6.9
Cc1nc(C)n(CC2CCCCN2CC(O)CN2CCOCC2)n1 (configuration not stated),7.2,2.7
NC(=O)c1cccnc1N1CCCC(Cc2ccccc2F)(C(=O)O)C1 (configuration not stated),-1.0,-5.5
CN(CC(=O)O)c1nc(Cc2ccc(F)cc2)ns1,5.4,20.1
COCCCNc1nc2nonc2nc1N(C)Cc1ccccn1,-0.1,-0.5
O=C(c1ccccc1-c1nn[nH]n1)N1CCOC(C(F)(F)F)C1 (configuration not stated),1.4,-6.8
CCSc1ncc(-c2c(-c3ccccc3)ncn2Cc2ncc[nH]2)cn1,2.0,-1.7
CCc1nnc(CN(CC)C(=O)C(C)Oc2cc(C)ccc2C)o1 (configuration not stated),2.4,3.0
COc1ccc(CCOC(=O)[C@@H]2CCCN2C(=O)c2cccnc2Nc2cccc(C)c2C)cc1OC,-5.8,-13.2
NC(N)=NC(=O)c1nc(Cl)c(N)nc1N,-3.5&-12.4&-10.9&6.8&-4.7,-7.9&-16.5&-15.2&-6.8&-8.0
CC1=C(C(=O)N2CCOc3ccc(C(O)C(c4ccccc4)c4ccccc4)cc3C2)OCCO1 (configuration not stated),17.1,0.9
Cc1nnsc1C(=O)NC1CCCCCC1,-5.6,-10.0
COC(=O)Cn1cnc2c(nnn2Cc2ccc(F)cc2)c1=O,5.0,8.0
Cc1c(C(=O)Nc2ccc(C(=O)N(C)C)cc2)oc2ccc(Cl)cc12,-17.0,-15.7
NC(=O)CSc1nc(N)nc(N)n1,0.6,5.3
COc1ccc(S(=O)(=O)NCC2CCCO2)cc1N1CCN(S(=O)(=O)c2cccc(F)c2)CC1 (configuration not stated),3.3,4.0
CC(=O)c1c(C)nn(C)c(=O)c1NC(=O)c1c(O)c2ccccc2[nH]c1=O,-9.9,-18.1

# Reprinted at random: 2 compounds from above, in no set order.
structure,NPYLR7 ag,NPYLR7 ag max-min
NC(=O)c1cccnc1N1CCCC(Cc2ccccc2F)(C(=O)O)C1 (configuration not stated),-1.0,-5.5
CCOC(=NCc1ccccc1)NC(=O)c1cccc(C(F)(F)F)c1,-5.5,5.0

# Other results.
structure,NPYLR7 ag,NPYLR7 ag max-min
CC(=O)NC(C)C(=O)N(C)C1CCN(CCc2ccncc2)CC1 (configuration not stated),-0.6,-1.2
Cc1nn(-c2ccccc2)c(C)c1CC(=O)N(C)Cc1n[nH]c2c1CCC2,2.6,0.3
Cc1cc(C)n(C(=O)c2cn(-c3ccc(S(=O)(=O)N4CCCC(C)C4)cn3)cn2)n1 (configuration not stated),-9.7,-11.0
Cc1c(Cl)cccc1N=Cc1nc(-c2ccc(Br)cc2)oc1O,-1.3,-7.0
Cc1nccn1-c1cc(C(C)(C)C)nc2c(-c3ccc(Cl)cc3)cnn12,3.9,4.9
Cc1cnccc1NCCNC(=O)c1cc2ccccc2s1,-2.3,-3.6
CCCn1ncc(C(=O)N2CCc3nnc(C4CCCO4)n3CC2)c1C (configuration not stated),3.4,0.0
COc1ncccc1-c1nc(N(C)C)nc2c1CCCC2,0.4,-1.6
N#Cc1ccc(CSC2=NS(=O)(=O)c3ccccc3N2)cc1,4.2,-3.7
Nc1cc(-c2ccc(Cl)cc2)nn1-c1ccc(C(=O)N2CCCCC2)cc1,-4.2,-7.8
Brc1ccccc1OCc1cnn(-c2ccccc2)n1,0.6,0.2
CC(=NNC(N)=S)C12CC3CC(CC(C3)C1)C2,-6.6,-9.3
O=C(N=Nc1c(O)[nH]c2ccc(Br)cc12)C1CC1,6.5,3.9
Cc1ccc2c(C(=O)N3CCC(CCO)CC3)cc(C)nc2c1,-0.8,-3.5
N#CCn1c(-c2nonc2N)nc2ccccc21,0.7,-2.4
CSc1nc2ccccc2n1Cc1c(C)ccc2ccccc12,4.5,2.9
CN(Cc1cccc(Cl)c1)c1nc(-c2cccnc2)nc2c1cnn2C,0.0,1.2
O=C(Cn1cnc([N+](=O)[O-])n1)Nc1ccccc1C(F)(F)F,-3.7,-5.1
Cc1cccc(-c2nn(-c3ccc(F)cc3)cc2C(=O)N2CCN(CCO)CC2)c1,0.1,-2.0
Cc1ccc(NC(=O)CN2C(=O)CSC2c2ccccc2Cl)cc1 (configuration not stated),15.7,14.6
O=C(NC(C(=O)N1CCCC1)C1CCN(S(=O)(=O)c2ccc(Cl)cc2)CC1)c1ccc2c(c1)OCO2 (configuration not stated),-5.9,1.6
N#Cc1ccccc1N=Nc1c(-c2ccc([N+](=O)[O-])cc2)[nH]n(-c2nc(-c3ccccc3)cs2)c1=O,-2.8,-6.1
COc1ccccc1N1CCN(C2CCCN(C(=O)CCc3c(C)noc3C)C2)CC1 (configuration not stated),0.7,-2.2
CC(=O)c1ccc(OC2CCN(CC(F)(F)F)C2=O)c(C)c1 (configuration not stated),2.7,0.5
CCCCc1nc(Cl)c(CN2CCN3C(=O)CNC(=O)C3C2)[nH]1 (configuration not stated),-0.9,-5.9
N#CC1(Br)C(=N)c2ccccc2CC12CCCCC2 (configuration not stated),-4.5,-6.3
CCOc1ccccc1-n1c(-c2ccccc2)cc(C(=O)N2CCN(c3ccccc3Cl)CC2)c1C,-3.4,7.0
Cc1ccsc1C(=O)N1CCC(n2cc(C(C)(C)O)nn2)CC1,1.7,25.6
O=C(NCc1ccccc1-c1ccc(Cn2ccnc2)cc1)NC1CC1,-3.1,-4.6
CC(C)c1ccccc1NC(=O)N1CCN(c2ncccc2NC(=O)c2ccc3c(c2)OCO3)CC1,-9.7,-13.8
CC(C)c1ccc(C2=NC(C)(CC(=O)N3CCOCC3)ON2C)cc1 (configuration not stated),5.9,1.8
Cc1cccc(C2CC(C(=O)Nc3cccc(Cl)c3)CN(C(=O)NC(C)C)C2)c1 (configuration not stated),6.3,3.5
CC(CNC(=O)CN1C(=O)COc2ccccc21)(c1ccccc1)c1ccccc1,6.3,2.7
Cc1ccc(CN(C)C(C)c2nc(N)nc(N(C)C)n2)cc1 (configuration not stated),3.9&10.4,2.1&7.1
COc1ccc(NC(=O)c2nnn(Cc3nc(-c4ccccc4)oc3C)c2C)c(OC)c1,-7.2,-13.4
CCNC(=O)C(CC(C)C)N1C(=O)CSC1c1cccc(F)c1 (configuration not stated),-22.1,-17.7
Cc1cc(C)cc(NC(=O)Cn2nc(-c3ccco3)c3sc(N4CCOCC4)nc3c2=O)c1,-2.5,-6.6
O=C(Cc1cccs1)NC1CCN(c2ccccc2C(=O)NCc2ccc(F)cc2)CC1,-4.8,6.4
CCOC(=O)c1ccc2c(c1)nc(SCc1cccc(I)c1)n2Cc1cccc(F)c1,-2.9,-3.2
C=CCOC1C[C@](OCc2ccc(F)cc2)(C(=O)NC2CC2)C[C@@H](O)[C@H]1O (some centres not stated),-5.1,-4.4
CO[C@@H]1C[C@@H]2CC(C)(C)OC[C@@]2(O)[C@H]1N1CCN(c2ccccc2Cl)CC1,6.7,12.7
Cc1ccc(C)c(S(=O)(=O)n2cccn2)c1,-0.6,44.6
C=CCn1cc(CN(Cc2nccn2C)C2CC2)c(C)n1,3.4,17.1
CC(=O)Oc1ccccc1C(=O)Oc1ccccc1C(=O)O,-4.5,-8.1
CCC(C(=O)N1CCCN(C)C2(CCN(C)CC2)C1)n1cccn1 (configuration not stated),10.4,6.2
Cc1ccc(C(=O)N(c2cccnc2)C(C)C)cc1Oc1ccncc1,3.2,-2.0
CCc1ncc(C(=O)N(CC)Cc2cccc3c2OCCO3)[nH]1,12.6,8.0
Cc1cnn(CC(=O)N(C)OCc2ccccc2)c1,-0.3,-6.2
Cc1ccc(C)c(OC2C(=O)N(CC3CCCO3)C2c2ccc(F)c(F)c2)c1 (configuration not stated),11.6,9.8
Cn1cnnc1SCC(=O)Nc1cc(F)ccc1F,-7.9,-10.3
COc1cc(C(=O)Nc2ccc3c(c2)-c2ccccc2C3)cc(Cl)c1OCC(N)=O,2.7,2.2
Cc1nc(CCNC(=O)Cc2c(C)[nH]c3c(F)cccc23)nc2c1CCC2,10.5,11.8
CCCNC(=O)Cn1nc2c(c1NC(=O)c1ccc(C(F)(F)F)cc1)CSC2,-6.4,-10.6
O=C1N(Cc2ccccc2)C(=O)C2(CCN(CC3CC=CCC3)CC2)N1CCc1ccccc1 (configuration not stated),18.9,2.9
Cc1cc(C)c(Cn2ccnc2CN(Cc2cccnc2)C(=O)c2cccs2)c(C)c1,21.6,29.7
O=S(=O)(Nc1ccc(Cl)c(C(F)(F)F)c1)c1ccc2ccccc2c1,-7.3,-13.1
COc1ccc(OC)c(-c2cccc(-c3cccc(NC(=O)[C@H](C)OC(C)=O)c3)n2)c1,14.5,23.9
O=C(NC1CC2CCC(C1)N2Cc1ccc2c(c1)OCO2)c1ccc(F)cc1Cl (configuration not stated),1.1,-2.6
CCc1cc2c(SCc3nc4sc(C(C)=O)c(C)c4c(=O)[nH]3)ncnc2s1,0.5,-0.8
O=C(c1ccccc1Cl)N1CCN(c2nc(-c3cccc(Br)c3)nc3ccccc23)CC1,-14.3,-4.3

# (more compounds)
structure,NPYLR7 ag,NPYLR7 ag max-min
CCc1nc2c(OCc3ccc(S(C)(=O)=O)cc3)cccn2c1N(C)C(=O)c1ccccc1F,-1.6,-4.1
COc1cc(C2NC(=O)NC(C)=C2C(=O)OCCc2ccccc2)ccc1OCc1ccccc1 (configuration not stated),-2.6,-8.4
COc1ccnc(N2CCN(c3ccccc3O)CC2)n1,0.0,-0.2
Cn1c(=O)[nH]c(=O)c2c1nc(N1CCCC1)n2Cc1ccccc1,9.1,1.9
CN(C(=O)CC1NC(=O)NC1=O)C1Cc2ccccc2C1 (configuration not stated),13.4,12.6
CCCc1cc(=O)n(CC(=O)NCCOC)c(-n2nc(C)cc2C)n1,-2.9,-1.8
O=C(Nc1ccc(CCO)cc1)C1=CCCCO1,-0.9,-2.1
CC(C)C1CC(=NNC(N)=S)C=C2CCCCC21 (configuration not stated),8.1,8.9
COc1cccc(CC2CCCN2CC(=O)NCc2cccnc2)c1 (configuration not stated),5.6,2.5
CCOC(=O)CSc1nc(CC)nc2c1oc1ccccc12,-7.4,-11.7
O=C(Nc1c[nH]ccc1=O)C1CCCN(Cc2ccccc2)C1 (configuration not stated),-4.5,-5.4
Cc1ccc2c(c1)c(C(=O)N1CCn3c(C(N)=O)cnc3C1)nn2C,2.4,1.3
CCOc1ccccc1OCCCC(=O)NC(CCSC)c1nc2ccccc2[nH]1 (configuration not stated),4.2,4.8
Cc1nc2nc(N3CCN(CCO)CC3)n(C)c2nc1C,6.4,1.8
CC1c2ccsc2CCN1CC(=O)Nc1ccc(F)c(Cl)c1 (configuration not stated),4.7,0.3
COC(=O)COc1ccc(Br)c2ccccc12,1.5,0.4
COc1cccc(-c2ccccc2NC(=O)C2CCN(Cc3ccc(F)cc3OC)CC2)c1,13.8,0.1
COCCN(CC(=O)Nc1cc(C(C)(C)C)nn1-c1ccc(C)cc1C)C(=O)COc1ccc(Cl)cc1,-0.3,4.2
CN(CCCC1CCCO1)C(=O)c1cc(-c2ccccc2)nn1C (configuration not stated),-4.9,-13.3
O=C(O)CCCCCCN=C1NC(=O)CS1,-1.7,-5.8
O=C(CN1CCN(C2CCS(=O)(=O)C2)CC1)Nc1ccc(Cl)cc1 (configuration not stated),6.9,5.2
Cc1cc(C)nc(NC(=O)c2cccc(CN(C)Cc3ccno3)c2)c1,-1.9,-2.1
COC(=O)C1=C(C)N(C)C(C)=C(C(=O)OC)C1c1ccncc1,-0.7,-0.6

# Grouped by structure, the compounds so far with two or more sulfur atoms.
structure,NPYLR7 ag,NPYLR7 ag max-min
COc1ccc(-c2ccc(/C=C3\SC(=S)NC3=O)o2)c([N+](=O)[O-])c1,4.4,-0.1
CCc1nc(C)sc1CNC(=O)c1sccc1NC(C)=O,-3.0,-6.9
COc1ccc(S(=O)(=O)NCC2CCCO2)cc1N1CCN(S(=O)(=O)c2cccc(F)c2)CC1 (configuration not stated),3.3,4.0
N#Cc1ccc(CSC2=NS(=O)(=O)c3ccccc3N2)cc1,4.2,-3.7
CCc1cc2c(SCc3nc4sc(C(C)=O)c(C)c4c(=O)[nH]3)ncnc2s1,0.5,-0.8
